PMP22 txn prim: Cell-based coincidence reporter assay to measure PMP22 gene transcription in S16 Pmp22-F2sN cells - Primary screen | hit rate 2% among 43,000 | Potency, µM (titrated, usually from 57.5 µM), without a hit: at the top dose activity change, negative = inhibition, actives largely listed as inhibitors | S16 Pmp22-F2sN Schwann cells (luciferase reporters placed in the Pmp22 gene), FLuc/NLuc coincidence luminescence, 24 h; active = clear falling dose curves in both reporters; inconclusive = both reporters move, but less clearly or upward; inactive = either reporter flat; the % is the NLuc reporter signal; note: % is set by controls: 0 for no effect and ±100 for the full control effect; some results filed as inactive show a strong effect at the top dose
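S16 Schwann cells carrying FLuc/NLuc coincidence reporter in the Pmp22 3' UTR treated with compound 24 h at 37C; FLuc then NLuc luminescence read sequentially by dual-luciferase reagents.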
HTT prom inh: Primary qHTS for Identification of Small Molecule Inhibitors of Huntingtin Promoter Activity; HEK293 HTT promoter firefly luciferase reporter (activity 0% = vehicle and -100% = no light), 24 h; Potency, µM (series often up to 57.5 µM), for the others: at the highest dose activity change, negative = inhibition, actives largely listed as inhibitors; hit rate 0.93% among 48,000; AID 1508623, 2021; active = well fitted inhibition curve with a large enough effect; inconclusive = small, poorly fitted or top-dose-only effect; inactive = no such curve, though single readings can be large or run the other way; note: nearly all actives have a fitted effect of over 50% in size
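HEK293 cells carrying firefly luciferase reporters were seeded at 2,500 per well in Opti-MEM and cultured for 24 h. They were then treated with compounds at up to 57.5 uM final for 24 h at 37 degrees C before Dual-Glo luminescence readout.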
Numbers without * were called inactive; ? = inconclusive; . = not tested or not shown; [ ] = dose if it differs, or a comment. Potency is the fitted concentration of half-maximal effect.

SMILES,PMP22 txn prim,HTT prom inh
CCC(C(=O)Nc1ccc(C(C)C)cc1)n1nc(C)n2c(cc3cc(C)ccc32)c1=O (stereo not drawn),-45%,-4%
FC(F)(F)c1cc(-c2ccccc2)nc2cc(-c3ccccc3)nn12,-9%,12%
O=C(NCc1c(-n2cccc2)sc2c1CCCC2)Nc1cccc(C(F)(F)F)c1,?,?
CCCOc1ccc(OC(=O)c2sc3ncn(Cc4cccc(F)c4)c(=O)c3c2C)cc1,-54%,-3%
COc1ccc(CCC(=O)NC2CC(=O)N(c3ccc(C)cc3)C2)cc1 (stereo not drawn),16%,-24%
Cc1cccc(NC(=O)c2sc3nc(-c4cc5ccc(O)cc5oc4=O)[nH]c(=O)c3c2C)c1,?,-14%
CCc1nn(CCCC(=O)NCc2ccc(C)cc2)c(=O)c2cc3occc3n12,-26%,-14%
CCOC(=O)c1ccccc1NC(=O)N1CCC(CN2CCCCC2)CC1,?,-8%
COc1ccc(NS(=O)(=O)c2ccc3[nH]c(=O)ccc3c2)cc1OC,-20%,-9%
Cc1cc(Nc2ncnc3ccc(-c4ccc(CNCCS(C)(=O)=O)o4)cc23)ccc1Oc1ccn2ncnc2c1,.,?

Compound profiles, as listed above:
Results for `CCCOc1ccc(OC(=O)c2sc3ncn(Cc4cccc(F)c4)c(=O)c3c2C)cc1` : PMP22 txn prim = -54%; HTT prom inh = -3%
Results for `Cc1cc(Nc2ncnc3ccc(-c4ccc(CNCCS(C)(=O)=O)o4)cc23)ccc1Oc1ccn2ncnc2c1` : PMP22 txn prim = .; HTT prom inh = ?

Later entries
SMILES,PMP22 txn prim,HTT prom inh
CCOc1ccc(CNC(=O)c2cnc(SC)nc2CC)cc1,-11%,-3%
CCOC(=O)c1c(C)[nH]c(CCC(=O)Nc2cc(C)ccc2OC)c1C,?,-29%
COc1ccc(OC)c(NC(=O)c2cnc(N3CCCC3)nc2C)c1,3%,-5%
CCN(C(=O)Cn1nc(Cc2ccncc2)c2ccccc2c1=O)c1ccc(OC)cc1,-24%,-6%
CCCC(=O)Nc1ccccc1OCc1cc(=O)n2cc(C)ccc2n1,-12%,-6%
CC1CCN(S(=O)(=O)c2ccc3nc(NCc4ccc(F)cc4)ccc3c2)CC1,?,-25%
Cc1cccc(OCC(=O)Nc2c(C(=O)N3CCN(c4ccccc4F)CC3)oc3ccccc23)c1,-3%,-1%
Cc1ccc(CNC(=O)c2ccc3c(O)c(S(=O)(=O)c4ccc(Cl)cc4)c(=O)[nH]c3c2)cc1,13%,-2%
COc1cc2nc(NC(=O)c3ccc(S(=O)(=O)N4CCCC4)cc3)sc2cc1OC,-37%,?
COc1ccc(C)cc1NC(=O)CN1C(=O)COc2ccc(S(=O)(=O)NC3CCCC3)cc21,-3%,-8%

Reprinted from the part before: 5 compounds; new compounds follow.
SMILES,PMP22 txn prim,HTT prom inh
CC1CCN(S(=O)(=O)c2ccc3nc(NCc4ccc(F)cc4)ccc3c2)CC1,?,-25%
Cc1cccc(OCC(=O)Nc2c(C(=O)N3CCN(c4ccccc4F)CC3)oc3ccccc23)c1,-3%,-1%
Cc1ccc(CNC(=O)c2ccc3c(O)c(S(=O)(=O)c4ccc(Cl)cc4)c(=O)[nH]c3c2)cc1,13%,-2%
COc1cc2nc(NC(=O)c3ccc(S(=O)(=O)N4CCCC4)cc3)sc2cc1OC,-37%,?
COc1ccc(C)cc1NC(=O)CN1C(=O)COc2ccc(S(=O)(=O)NC3CCCC3)cc21,-3%,-8%
CC(=O)c1cccc(NC(=O)C2CCN(S(=O)(=O)c3ccccc3)CC2)c1,41%,-22%
Cc1cccc(CSc2nnc3[nH]c(=O)cc(-c4ccccc4)n23)c1,-74%,-10%
COc1ccc(N2CC(NC(=O)COc3ccc4ccccc4c3)CC2=O)cc1OC (stereo not drawn),-7%,-15%
CNC(=O)c1c(NC(=O)c2ccc(S(=O)(=O)N3CCCCC3)cc2)sc2c1CCC2,?,-6%
O=C(Cn1ncc2c3ccccc3n(Cc3ccccc3F)c2c1=O)N1CCCCCC1,-28%,-8%
Cc1ccc(C)c(CN2C(=O)c3ccccc3S(=O)(=O)c3ccc(C(=O)Nc4ccccc4C(F)(F)F)cc32)c1,1%,-19%
CCn1nc(C(=O)O)c(=O)c2cc3c(cc21)OCO3,.,8%
CCN1CCN(C(=O)c2ccc3c(c2)N(Cc2c(F)cccc2Cl)C(=O)c2ccccc2S3)CC1,-29%,-24%
Cc1ccc(NC(=O)Cn2c(=O)ccc3cc(S(=O)(=O)N4CCC(C)CC4)ccc32)cc1C,-26%,?
Cc1ccc(NC(=O)CN2C=NS(=O)(=O)c3ccccc32)cc1,5%,-3%
O=C(CCCn1c(=O)c2cccn2c2cccnc21)Nc1ccccc1Br,?,3%
Cc1ccc(NC(=O)Nc2c[nH]c(=O)[nH]c2=O)c(Cl)c1,6%,8%
C[C@@]1(c2cc(-c3cncnc3)c(F)cc2F)CCSC(N)=N1,.,?
CCOCCCNc1ncnc2c1cnn2-c1ccc(C)c(C)c1,?,10%
CCCC(=O)Nc1ccc(-c2nc3ncccc3o2)cc1C,2%,42%[activator]
CCOc1ccc(NC(=O)CCS(=O)(=O)c2ccc3nc(C)sc3c2)cc1,-25%,-1%
Cc1cn2c(=O)c(S(=O)(=O)NCc3ccccc3Cl)c(C)nc2s1,-5%,0%
Cc1ccc(C(C)C)c(OCC(O)CN2CCN(c3ccccc3F)CC2)c1 (stereo not drawn),?,-21%
CCOc1ccccc1NC(=O)C1=C(C)Nc2ncnn2C1c1sccc1C (stereo not drawn),-8%,-14%
Cc1ccc(S(=O)(=O)c2cn(C)c3cc(N4CCN(C)CC4)c(F)cc3c2=O)cc1,-13%,-12%
O=c1[nH]c2ccc(NS(=O)(=O)c3ccc(F)cc3)cc2s1,-1%,?
COCCn1c(C)cc(O)c(C(c2ccccc2)N2CCN(c3ccc(F)cc3)CC2)c1=O (stereo not drawn),?,-7%
CCN(CC)S(=O)(=O)c1ccc2c(c1)N(CC(=O)NCCCN1CCN(c3cc(Cl)ccc3C)CC1)C(=O)CO2,20µM*,-30%
CCc1nn2c(=O)cc(COC(=O)c3ccc4c(c3)OCO4)nc2s1,?,-2%
CC(=O)N[C@@H](Cc1ccc(O)cc1)C(=O)O,.,-2%
CCC(=O)Nc1ccccc1-c1nc2ccccc2n(CC(=O)c2ccc(Br)cc2)c1=O,-4%,-10%
Cc1ccc(S(=O)(=O)c2nnn3c2nc(N2CCCC(C)C2)c2cc(Cl)ccc23)cc1C (stereo not drawn),?,-2%
CCOC(=O)c1[nH]cnc1C(=O)Nc1ccc(F)cc1,8%,-11%
CCOc1ccc(N(CC)C(=O)Cn2cnc3sc(C)c(S(=O)(=O)N4CCN(c5ncccn5)CC4)c3c2=O)cc1,?,0%
Cc1cc(N2CCC(C(=O)NCCC(C)C)CC2)n2nc(C)c(-c3ccc(Cl)cc3)c2n1,0%,-11%
Cc1ccc(CNC(=O)Cn2cc(S(=O)(=O)Cc3ccccc3Cl)c3ccccc32)cc1,?,?
Cc1ccc(NC(=O)C2CCCN2S(=O)(=O)c2ccc3nc(-c4ccccc4)[nH]c3c2)cc1F (stereo not drawn),?,?
CC(=O)c1ccc(NC(=O)c2cc3c([nH]c2=O)CC(c2ccccc2)CC3=O)cc1 (stereo not drawn),?,-19%
CCn1cc(S(=O)(=O)c2ccc(Cl)cc2)c(=O)c2cc(F)c(N3CCOCC3)cc21,?,4%
CCOC(=O)c1ccc(NC(=O)C2CCCN(c3ccc(Sc4ccc(C)cc4)nn3)C2)cc1 (stereo not drawn),-27%,-26%
CCCCOc1cccc(C(=O)Nc2cccc3ccc(C)nc23)c1,-9%,-25%
Cc1ccc(Cl)cc1N1CCN(C(=O)CCn2c(=O)c3cccn3c3cccnc32)CC1,?,-1%
CCn1c2c(c(=O)n3ncc(C(=O)N4CCN(c5ccc(C(C)=O)cc5)CC4)c13)CN(Cc1ccc(OC)cc1)CC2,?,?
Cc1ccc(CNC(=O)c2cc(=O)c3cc(C)cc(C)c3o2)cc1,-8%,19%[11.5 µM]
COc1cccc(CNC(=O)c2ccc(CS(=O)c3ccccc3)o2)c1 (stereo not drawn),-4%,-10%
Cc1ccc2oc(-c3cc(NC(=O)c4ccc5c(c4)OCCO5)cc(C)c3O)nc2c1,-19%,-12%
CCOC(=O)c1c(C)[nH]c(C)c1S(=O)(=O)NCC(=O)N1CCN(c2ccccc2OC)CC1,5%,-4%
COc1ccc(OC)c(CNC(=O)C2CCN(c3nc4ccccc4nc3C(F)(F)F)CC2)c1,5%,-5%
COc1ccc(C(=O)NCC(c2ccco2)S(=O)(=O)c2cccs2)cc1 (stereo not drawn),-6%,-8%
CCc1nn2c(=O)cc(COC(=O)c3ccccc3)nc2s1,-13%,43%[activator]
CCOc1ccc(NC(=O)C2CCCN(c3ccc(Sc4ccc(C)cc4)nn3)C2)cc1 (stereo not drawn),-34%,-3%
Cc1cc(C)cc(-n2ccn3c(CC(C)(C)CC(=O)O)nnc3c2=O)c1,7%,-13%
Cc1ccc2ncc(C(=O)Nc3ccc(F)cc3F)c(=O)n2c1,3%,36%[activator]
COC(=O)c1cc2oc(C)cc2n1CC(=O)Nc1cc(Cl)ccc1OC,4%,-8%
CCC(Oc1ccccc1F)C(=O)N1CCC(c2nc3ccccc3s2)CC1 (stereo not drawn),-19%,?

Continued.
SMILES,PMP22 txn prim,HTT prom inh
Cn1cc(-c2[nH]c3cc(NC(=O)[C@H](N)C4CCCCC4)cc4c3c2C=NNC4=O)cn1,.,?
CC(C)(C)OC(=O)N1CCC(c2c(C(=O)N3CCN(c4ccccn4)CC3)cnn2-c2ccc(F)cc2F)CC1,-21%,-2%
Cc1csc2nc(COC(=O)CNC(=O)c3ccccc3)cc(=O)n12,1%,-25%
COc1ccc(-c2ccc(CCC(=O)O)n2-c2ccccc2C(F)(F)F)cc1,?,-20%
CCOCCn1ccc2c(OCC(=O)Nc3cc(C(F)(F)F)ccc3Cl)cccc2c1=O,4%,0%
O=C(O)C1=NC(C(=O)O)CC(C=CN2c3cc(O)c(OC4OC(CO)C(O)C(O)C4O)cc3CC2C(=O)O)=C1 (stereo not drawn),.,14%
Cc1ccc(-c2cc(NC(=O)COc3ccc(Cl)c(C)c3)on2)cc1,3%,1%
Cc1cc(-c2ccc(S(=O)(=O)NCc3ccccc3Cl)s2)on1,?,?
CC(=O)N1CCc2cc(Br)cc(S(=O)(=O)N3CCC(C(=O)Nc4ccc(C(C)C)cc4)CC3)c21,?,?
COC(=O)c1cc(NC(=O)c2nn(C)c3c2CSc2ccccc2-3)cc(C(=O)OC)c1,-2%,-12%
CCC(C(=O)Nc1cccc(C#N)c1)n1nc(-c2ccccc2)ccc1=O (stereo not drawn),3%,-26%
Cc1ccc(NC(=O)CN2C(=O)c3cccnc3Oc3ccc(Cl)cc32)cc1,1%,-19%
Cc1cccc(N2CCN(C(=O)c3cnc4c(C)cccn4c3=O)CC2C)c1 (stereo not drawn),?,5%
COc1ccc(-c2cn3nc(N4CCCC(C(=O)NCCCOC(C)C)C4)sc3n2)cc1 (stereo not drawn),?,-20%
CCOc1ccc(NC(=O)CSc2nnc(CNC(=O)C34CC5CC(CC(C5)C3)C4)n2CC)cc1,-9%,-27%
CC(=O)c1cccc(NS(=O)(=O)c2c(C(=O)N3CCCCCC3)c(C)n(C)c2C)c1,-11%,-2%
CC1Cn2c(C(=O)NCc3ccccc3Cl)cc3cccc(c32)S1 (stereo not drawn),-17%,-20%
Cc1ccn2c(Nc3ccc4c(c3)OCCO4)c(-c3ccc(C)s3)nc2c1,-29%,30%[activator]
COc1ncc(-c2ccc3nccc(-c4ccnnc4)c3c2)cc1NS(=O)(=O)c1ccc(F)cc1F,.,?
Cc1ccc(CNc2ncnc3c2cnn3-c2ccc(Cl)cc2)cc1,0%,5%
CCOc1ccc(-c2cc3c(=O)n(Cc4nc(-c5ccc(OCC)c(OC)c5)oc4C)ccn3n2)cc1Cl,-5%,5%
COC(=O)C(C)Sc1nnc2cc(C)c3cc(C)cc(C)c3n12 (stereo not drawn),41%,-24%
CCc1ccc(S(=O)(=O)Nc2ccc3[nH]c(=O)sc3c2)cc1,?,?
CCCN(Cc1cccs1)C(=O)Nc1cc(Cl)c(OC)cc1OC,-40%,-5%
COc1ccc(NC(=O)c2c(NCc3cccc(F)c3)sc3c2CCC3)c(OC)c1,?,-20%
CCN(C(=O)C(NS(=O)(=O)c1cccc2nsnc12)c1ccccc1)c1ccccc1 (stereo not drawn),-2%,-23%
O=C(OCCOCCO)c1ccccc1Nc1cccc(C(F)(F)F)c1,.,-27%
CCCC12CN3CC(CCC)(CN(C1)C3c1ccc(OCc3ccccc3)cc1)C2=O (stereo not drawn),22%,-5%
CC(=O)Nc1c(C)nn(-c2ccccc2)c1N1CCC(C(=O)NCc2cccc(F)c2)CC1,-5%,-17%

From PubChem
